Insulin prom inh: inhibitors of insulin promoter-driven GFP, primary screen, imaging, TRM-6 cells (human fetal islet line), eGFP reporter, cell count; reporter expression induced with tamoxifen; inhibition, % at 2 µM; actives 0.9% (n = 130,000); AID 1273, 2008;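 active means inhibition above the mean plus 3 SD, with well images judged a real hit on visual review, cut at about 60% in these data, passing the limit was not always enough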
GALR2 agonist: GALR2 receptor agonists, primary screen, cell-based; actives 0.48% (n = 140,000); GALR2-expressing cells, agonist activation read-out; Galanin receptor type 2 (Homo sapiens), O43603; activation, %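 (tested at 5 µM)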;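 active means above mean plus 3 SD of all compounds, about 5% in these data, not always enough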;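 further: 0% = vehicle buffer wells and 100% = reference agonist at full effect; tested in CHO reporter cells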
PKD1 kinase inh: inhibitors of human PKD1 kinase, biochemical, fluorescence polarization; actives 0.056% (n = 200,000); PKD1 kinase fluorescence polarization assay; AID 797, 2007; inhibition, %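 (about 10 µM by stock and volumes)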;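 active means inhibition of 50% or more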;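 further: controls were vehicle for no effect and a reference inhibitor for full effect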
Target sequence (Q15139 whole entry, looked up): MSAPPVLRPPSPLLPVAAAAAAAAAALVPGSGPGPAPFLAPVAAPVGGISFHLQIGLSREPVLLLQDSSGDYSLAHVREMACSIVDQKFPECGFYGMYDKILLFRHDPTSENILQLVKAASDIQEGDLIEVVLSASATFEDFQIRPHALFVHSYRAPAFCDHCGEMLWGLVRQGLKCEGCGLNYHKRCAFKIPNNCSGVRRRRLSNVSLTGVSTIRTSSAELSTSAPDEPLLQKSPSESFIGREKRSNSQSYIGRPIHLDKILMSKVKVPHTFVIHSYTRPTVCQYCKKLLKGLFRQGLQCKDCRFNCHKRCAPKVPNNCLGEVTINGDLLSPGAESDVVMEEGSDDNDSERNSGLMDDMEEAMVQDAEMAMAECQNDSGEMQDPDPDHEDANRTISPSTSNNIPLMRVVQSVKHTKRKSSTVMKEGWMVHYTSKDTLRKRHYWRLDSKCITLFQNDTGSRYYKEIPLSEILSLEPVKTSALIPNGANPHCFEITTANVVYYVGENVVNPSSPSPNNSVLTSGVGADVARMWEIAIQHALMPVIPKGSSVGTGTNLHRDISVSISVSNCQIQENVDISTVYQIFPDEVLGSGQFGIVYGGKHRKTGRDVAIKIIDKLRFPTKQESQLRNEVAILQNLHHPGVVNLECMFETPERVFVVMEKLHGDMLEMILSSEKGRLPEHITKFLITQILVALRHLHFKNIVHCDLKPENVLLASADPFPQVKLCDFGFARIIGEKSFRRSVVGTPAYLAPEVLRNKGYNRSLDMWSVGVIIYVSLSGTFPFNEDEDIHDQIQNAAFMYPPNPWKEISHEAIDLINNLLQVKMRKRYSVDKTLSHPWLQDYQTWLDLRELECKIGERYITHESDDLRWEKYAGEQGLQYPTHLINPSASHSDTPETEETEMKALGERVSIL
RGS16-Gao HTS: modulators of RGS16 binding to Galphao, primary screen, biochemical, human proteins, multiplexed bead flow cytometry; Regulator of G-protein signaling 16 (Homo sapiens) + Guanine nucleotide-binding protein …; bead-based flow cytometry RGS16-Galphao binding, fluorescence; actives lie on both sides; binding response (% of control), % at 10 µM; actives 0.38% (n = 220,000); AID 1441, 2008;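 active means below 25% or above 175%, edge rows of some plates excepted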;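 further: Galphao activated by GDP with aluminum fluoride before binding; 100% = wells without compound and 0% = beads without RGS; some results beyond the cut were filed as inactive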
HSV replic up: enhancers of HSV replication in host cells, fold increase, host cell viability | HSV replication augmentation in cells | maximum fold increase | actives 0.005% (n = 220,000);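 active means peak rise of 1.5-fold or more in the series; tested in PC3 cells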;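 further: first round at 10 µM; read as green reporter fluorescence; hits show the peak of a series up to 25 µM; 1 = signal of infected wells without compound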
Insulin prom inh cell count: second read-out of Insulin prom inh, no call of its own (marks repeat the call); normalized cell count, %; measured here: cell count, toxicity; reference of the scale not given here;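 cells exposed to compound for 48 h; stained nuclei by imaging scaled within each plate; lower means fewer cells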
HSV replic up primary fold: also measured in HSV replic up; calls as there; fold increase; compound at 10 µM; measured here: primary screen fold increase 10 uM; tested in PC3 cells;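 GFP signal in the first replicate; 1 = infected wells without compound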
The depositor's hits bear a star; i = inactive; x = no result given.

Structure,Insulin prom inh,Insulin prom inh cell count,GALR2 agonist,PKD1 kinase inh,RGS16-Gao HTS,HSV replic up,HSV replic up primary fold
COc1ccc(-c2cc(=O)c3cc(OC)ccc3[nH]2)cc1,5,101,-1.9,-1,104,i,1
CCOc1ccc(-n2c(=O)c3c4c(sc3n(CC(=O)NCc3ccco3)c2=O)CCC4)cc1,x,x,-1.8,-2,94,i,0.99
Cc1cc2nc(-c3ccc(SCC(=O)N4CCc5ccccc54)nc3)[nH]c2cc1C,x,x,-2.2,11,104,i,1.2
O=C(Cc1cccc2ccccc12)OCn1nnc2ccccc2c1=O,x,x,-1.0,5,96,i,0.99
Cc1cc(NS(=O)(=O)c2ccc(NC(=O)COc3ccc(Cl)cc3)cc2)no1,5,72,1.0,7,101,x,x
O=C(CN(C1CCCCC1)S(=O)(=O)c1ccc(Cl)cc1)NCCCO,x,x,-0.4,-3,104,i,0.99
O=C(NC(=S)NCc1ccccc1)c1ccc2c(c1)OCO2,x,x,-0.6,-10,77,x,x
Cc1cc(N/N=C/c2ccc(F)cc2)nc(-n2nc(C)cc2C)n1,x,x,x,x,100,i,0.72
Cc1c(NC2=C(Cl)C(=O)N(c3ccccc3)C2=O)c(=O)n(-c2ccccc2)n1C,x,x,-0.2,-12,91,i,0.93
COc1ccccc1CNC(=O)CSc1nc2ccccc2c(=O)n1CCCN1CCOCC1,-35,114,x,-5,98,i,1.2
CC(=O)OCC1(C)CN(c2ccccc2)NC1=O (centres undefined),x,x,x,-1,100,i,0.91
CCn1cc(S(=O)(=O)CC(=O)Nc2ccc3c(c2)OCCO3)c2ccccc21,x,x,-3.3,2,102,i,1.1
CCCCNC(=S)N/N=C/c1ccccc1F,-33,166,-2.0,2,100,i,0.93
COc1cccc(C2CC(c3cccs3)=NN2C(=O)CSc2nc3ccccc3s2)c1OC (centres undefined),x,x,-0.1,6,97,i,1.1
O=C1CC(c2ccccc2)n2ncnc2N1 (centres undefined),-2,108,1.2,-7,104,i,0.88
Cc1ccc(CN2C(=O)c3ccccc3C2C(=O)NCC2CCCO2)cc1 (centres undefined),-26,191,-1.4,-4,107,i,0.82
COC(C)(C)[C@]12CC(O)(C(C)C)ON1[C@H]1CCCCC1N2O (some centres undefined),-53,124,1.0,4,102,i,1
O=C(Nc1cccc([N+](=O)[O-])c1)Nc1ccc2c(c1)OCCO2,x,x,x,-3,101,i,1
O=C(CSc1nnc(-c2ccc(OC(F)F)cc2)o1)NC(=O)NCc1ccco1,x,x,-3.3,-11,102,i,0.87
CCCCC(=O)Oc1cc(C)[nH]c(=O)c1[N+](=O)[O-],15,141,x,-3,100,x,x
CCCCn1c(NCCC)nc2c1c(=O)[nH]c(=O)n2C,0,114,-2.6,6,102,i,1
Cc1nc(C2COc3ccccc3O2)sc1C(=O)O (centres undefined),x,x,x,x,105,i,1.1
CC(C)COc1ccc(C(=O)CCN2CCCCC2)cc1,0,66,-1.1,10,101,i,0.85
COc1ccc(NC(=O)CSc2nnc(COc3ccccc3)n2Cc2ccco2)cc1OC,-71,157,-0.4,-1,101,i,0.94
CCOc1ccccc1CNC(=O)CCNC(=O)Cn1ccc2ccccc2c1=O,19,94,-0.5,0,99,i,0.87
Cc1ccc(-c2ccc(CCC(=O)O)n2-c2cccc(O)c2)cc1,-291,92,-1.3,0,98,i,1.1
O=C(NCC1CCCO1)c1ccc(NS(=O)(=O)c2cccs2)cc1 (centres undefined),x,x,x,x,93,i,1.2
CC(C)CNC1CS(=O)(=O)CC1O (centres undefined),x,x,x,x,100,i,0.99
Cc1ccnc(NC(=S)NC(=O)c2ccco2)c1,-3,97,-1.2,-2,105,x,x
CCc1ccccc1OCCOc1ccc(C)cc1OC,19,67,-0.1,7,101,i,1
CCCn1nnc(NC(=S)NC(=O)c2ccc(-c3ccc(Br)cc3)o2)n1,x,x,x,x,103,i,0.91
O=C(Nc1ccc(F)cc1)c1cccc(N2C(=O)C3C4CCC(C4)C3C2=O)c1 (centres undefined),-38,134,0.5,-9,103,i,1
CSc1ccccc1NC(=O)Cc1ccc(Br)cc1,4,71,-0.9,-14,102,i,0.94
COCCNC(=O)C(=O)NCC1OCCN1S(=O)(=O)c1cccs1 (centres undefined),x,x,x,x,101,i,1.1
CCC(C)N1CC23C=CC(O2)C(C(=O)OC)C3C1=O (centres undefined),20,147,-1.4,-7,98,i,0.84
O=C(NCCN1CCOCC1)c1cc2ccccc2[nH]1,29,53,-0.4,-2,103,i,1
CCOC(=O)c1sc(NC(=O)CSC(=S)N2CCN(C)CC2)nc1C,x,x,x,x,106,i,1.1
O=C(NCc1nnc(SCC(=O)N2CCOCC2)o1)c1ccccc1F,-45,99,x,-2,109,i,0.99
Cc1ccc(Cl)cc1N1CCN(C(=O)CCS(=O)(=O)c2cccc3nonc23)CC1,x,x,-0.8,-2,74,i,0.98
COc1cc2nc(CSc3ncn[nH]3)[nH]c(=O)c2cc1OC,x,x,x,5,103,i,1

As entered above:
COc1ccc(NC(=O)CSc2nnc(COc3ccccc3)n2Cc2ccco2)cc1OC in Insulin prom inh is listed with -71
CCc1ccccc1OCCOc1ccc(C)cc1OC in Insulin prom inh cell count is listed with 67
CCOc1ccccc1CNC(=O)CCNC(=O)Cn1ccc2ccccc2c1=O in HSV replic up primary fold is listed with 0.87
O=C(NCCN1CCOCC1)c1cc2ccccc2[nH]1 in Insulin prom inh is listed with 29
CCC(C)N1CC23C=CC(O2)C(C(=O)OC)C3C1=O (centres undefined) in RGS16-Gao HTS is listed with 98
CSc1ccccc1NC(=O)Cc1ccc(Br)cc1 in Insulin prom inh cell count is listed with 71
O=C(NCc1nnc(SCC(=O)N2CCOCC2)o1)c1ccccc1F in RGS16-Gao HTS is listed with 109

New compounds follow:
Structure,Insulin prom inh,Insulin prom inh cell count,GALR2 agonist,PKD1 kinase inh,RGS16-Gao HTS,HSV replic up,HSV replic up primary fold
Cc1ccc(/C=C/c2ccc(=O)n(Cc3ccc(F)cc3)n2)cc1,x,x,x,0,96,i,0.9
COc1ccc(NC(=O)Cn2c(-c3ccccc3)cc(C(C)=O)c2C)c(OC)c1,36,80,x,3,99,i,0.97
COc1ccc(NC(=O)CSC2=C(C#N)C(c3ccco3)C(C(=O)Nc3nc4ccccc4s3)=C(C)N2)cc1 (centres undefined),-13,98,0.8,-6,x,i,0.98
COc1cc2nc(NC(=O)c3ccc(Cl)cc3)[nH]c(=O)c2cc1OC,34,137,-1.2,-2,92,i,1
CCCCC(OC(=O)c1cc2occc2n1C)C(=O)NCC1CCCO1 (centres undefined),-21,123,-1.5,-7,100,x,x
CCOc1ccc(Br)cc1CSC(=N)N,-15,89,-1.4,11,48,i,0.9
Cc1cc(C)cc(N(C(=O)c2cc3ccccc3oc2=O)C2C=CS(=O)(=O)C2)c1 (centres undefined),x,x,-0.4,2,77,i,0.95
NNc1nc2sc3c(c2c(=O)n1Cc1ccccc1)CCC3,x,x,x,x,99,i,0.84
O=C(N/N=C/c1cn(CCOc2ccccc2)c2ccccc12)c1ccncc1,13,64,-0.8,-2,94,i,0.93
O=C(CN1CCOCC1)Nc1ccccc1Sc1ccc(Cl)cc1,-73,103,-1.1,5,96,i,1
O=C(CSc1nc(C2CCCCC2)n(-c2ccccc2)n1)NCC(F)(F)F,13,79,-0.7,4,144,i,1
Cc1nc2ccccc2c(=O)n1NC(=O)c1ccc([N+](=O)[O-])cc1Cl,44,120,x,-4,123,i,1
COC(=O)c1c(NC(=O)C2C3C=CC(CC3)C2C(=O)O)sc(C)c1C (centres undefined),-8,103,-1.1,8,99,i,0.97
CCOC(=O)c1cnc(SCC(=O)NCc2ccco2)nc1N,-18,182,-2.6,9,97,i,0.85
O=C(Nc1ccc(Cl)c(Cl)c1)N1CCC(N2CCCCC2)CC1,-21,129,-3.1,-9,103,i,0.73
Cc1cc(C)cc(N2CCCn3c2nc2c3c(=O)n(CCN3CCOCC3)c(=O)n2C)c1,i,46,-2.3,1,229,i,1
CC(C)NC(=O)CC1Nc2c3ccccc3nc(=S)n2C1=O (centres undefined),-34,69,-0.9,-10,85,i,0.98
COc1ccc(/C=C/C(=O)c2ccncc2)c2ccccc12,x,x,-1.7,-10,103,i,0.94
CCOC(=O)C1CCN(CC(=O)Nc2cc(C)nn2-c2nc3ccccc3s2)CC1,11,129,-1.2,2,98,x,x
CC(NS(=O)(=O)c1ccccc1)c1n[nH]c(=S)n1-c1ccccc1 (centres undefined),x,x,x,x,102,i,0.94

Reformatted with two lines to a compound: 2 of the compounds above.
Values run as follows: Insulin prom inh, Insulin prom inh cell count, GALR2 agonist, PKD1 kinase inh, RGS16-Gao HTS, HSV replic up, HSV replic up primary fold
- CC(NS(=O)(=O)c1ccccc1)c1n[nH]c(=S)n1-c1ccccc1 (centres undefined)
    x, x, x, x, 102, i, 0.94
- NNc1nc2sc3c(c2c(=O)n1Cc1ccccc1)CCC3
    x, x, x, x, 99, i, 0.84

Ordered by count of non-hydrogen atoms (low to high): some entries from above.
Structure,Insulin prom inh,Insulin prom inh cell count,GALR2 agonist,PKD1 kinase inh,RGS16-Gao HTS,HSV replic up,HSV replic up primary fold
CCOC(=O)c1cnc(SCC(=O)NCc2ccco2)nc1N,-18,182,-2.6,9,97,i,0.85
CC(NS(=O)(=O)c1ccccc1)c1n[nH]c(=S)n1-c1ccccc1 (centres undefined),x,x,x,x,102,i,0.94
COC(=O)c1c(NC(=O)C2C3C=CC(CC3)C2C(=O)O)sc(C)c1C (centres undefined),-8,103,-1.1,8,99,i,0.97
CCCCC(OC(=O)c1cc2occc2n1C)C(=O)NCC1CCCO1 (centres undefined),-21,123,-1.5,-7,100,x,x

(further entries)
Structure,Insulin prom inh,Insulin prom inh cell count,GALR2 agonist,PKD1 kinase inh,RGS16-Gao HTS,HSV replic up,HSV replic up primary fold
C[N+](C)=C1SCC(C)(/C=N/O)S1 (centres undefined),x,x,x,x,100,i,1
O=C(NCCNC1CCC(c2ccccc2)CC1)c1cccs1 (centres undefined),-28,64,x,-6,227,i,0.88
Cc1c(CCO)c(=O)n(-c2ccccc2)n1S(=O)(=O)c1ccc(F)cc1,-75,122,-0.3,2,102,i,1.1
COc1cc(C(=O)NCCC(=O)N2CCN(C)CC2)cc(OC)c1OC,x,x,x,4,107,i,1.1
COCCNC(=O)CN(C(=O)CCC(=O)Nc1cc(C)on1)c1cccc(C)c1C,13,83,-2.5,18,104,i,0.99
CN(CC1CCOCC1)C(=O)CC1C(=O)NCCN1CC1CCCCC1 (centres undefined),x,x,x,7,96,x,x
S=C(NCCc1ccccc1)N1CCCCC1,-19,116,x,-3,103,i,1
CC(=O)NCCc1nc2cc(NC(=O)c3ccccc3)ccc2n1C,21,111,x,12,101,i,1
O=C(NNS(=O)(=O)c1ccc(Cl)cc1)c1cccs1,-13,86,x,2,130,i,0.94
O=C(COc1ccccc1[N+](=O)[O-])Nc1cccnc1,0,116,x,3,108,i,0.96
COc1ccc(-n2c(C)cc(/C=C3/SC(=O)N(CC(=O)N4CCOCC4)C3=O)c2C)cc1,-81,59,-0.1,-7,82,i,0.99
CCOc1ccc(NC(=O)CCN2CCCCC2)cc1,x,x,-2.1,-6,106,i,0.92

Assay outcomes: PubChem, several laboratories
